YopH PTP inh: YopH (Yersinia) phosphatase inhibition; fluorescence Ex485/Em525; inhibition, %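 (about 10 µM by stock and volumes)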; 140,000 tested, 0.16% active;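 active = inhibition of 50% or more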;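 also: controls were vehicle for no effect and minimum signal wells for full effect; inactives centre near -20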
Arbovirus anti: antivirals against arbovirus infection. arbovirus infection cell-based antiviral screen. inhibition, % at 10 µM. 200,000 tested, 0.37% active;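 active = inhibition from about 30%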;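 also: bluetongue infection of BSR cells; cell survival read as ATP light after 72 h; 0% = infected wells without compound and 100% = uninfected wells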
Mtb bLac sens: beta-lactam sensitization of Mtb H37Rv. AID 434955. 330,000 tested, 0.27% active. M. tuberculosis H37Rv growth with meropenem, percent inhibition; hits of this screen are not shown here. inhibition, % at 25 µM;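 active = about 74% or more and at least 40 points above the plate without the antibiotic, then above 30% in a dose series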;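 also: growth measured after seven days incubation then overnight dye step; 0% = bacteria only wells and 100% = bacteria with antibiotic; twin plates without the antibiotic show which effects depend on it; some results filed as inactive read as strong as hits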
RecA splice inh: inhibitors of M. tuberculosis RecA intein splicing; P9WHJ3; cell-free RecA intein splicing, fluorescence; inhibition, %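 (about 9 µM by stock and volumes)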; 290,000 tested, 0.75% active; AID 2221; in the data active = inhibition above about 30%;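 also: 0% = vehicle wells and 100% = reference inhibitor control wells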
Target sequence (P9WHJ3 whole entry, looked up, canonical isoform): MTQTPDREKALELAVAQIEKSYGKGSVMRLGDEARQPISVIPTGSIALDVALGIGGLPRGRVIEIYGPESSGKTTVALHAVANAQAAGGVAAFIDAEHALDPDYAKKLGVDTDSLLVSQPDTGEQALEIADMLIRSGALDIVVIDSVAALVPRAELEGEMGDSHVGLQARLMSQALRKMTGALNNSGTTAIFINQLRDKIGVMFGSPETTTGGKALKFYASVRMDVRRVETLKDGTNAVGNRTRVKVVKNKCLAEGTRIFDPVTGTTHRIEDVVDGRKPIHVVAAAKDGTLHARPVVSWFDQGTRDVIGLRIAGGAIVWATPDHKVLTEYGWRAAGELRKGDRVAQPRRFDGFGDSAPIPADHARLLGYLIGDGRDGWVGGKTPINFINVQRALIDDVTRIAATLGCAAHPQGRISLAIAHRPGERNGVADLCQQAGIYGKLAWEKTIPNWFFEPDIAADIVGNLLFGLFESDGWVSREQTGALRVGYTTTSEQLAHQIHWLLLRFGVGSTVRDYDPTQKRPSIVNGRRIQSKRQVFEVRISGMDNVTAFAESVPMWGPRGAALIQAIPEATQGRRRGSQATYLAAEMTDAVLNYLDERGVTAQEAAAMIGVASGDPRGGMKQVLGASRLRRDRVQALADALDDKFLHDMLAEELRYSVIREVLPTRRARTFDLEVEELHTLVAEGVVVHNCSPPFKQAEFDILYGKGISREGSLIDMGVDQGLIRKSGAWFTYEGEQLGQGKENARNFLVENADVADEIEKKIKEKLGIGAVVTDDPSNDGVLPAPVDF
Mtb H37Rv: M. tuberculosis H37Rv growth inhibitors, H37Rv strain (AID 1626); M. tuberculosis H37Rv growth inhibition; higher % means a stronger effect; inhibition, % at 10 µM, or IC50 in µM where a hit was titrated; 220,000 tested, 0.95% active;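 active = confirmed in a dose series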;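 also: bacteria incubated seven days before Alamar blue readout; 0% = bacteria only wells and 100% = bacteria with antibiotic wells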
Arbovirus anti repeat: second read-out of Arbovirus anti, no call of its own (marks repeat the call); inhibition, %; measured here: 10K subset replicate screen; many hits read low in the repeat;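 first of two repeat runs on a subset; 0% = infected and 100% = uninfected wells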
The depositor's hits bear a star; . = no result given.

SMILES | YopH PTP inh | Arbovirus anti | Mtb bLac sens | RecA splice inh | Mtb H37Rv | others
COc1cc2c(cc1OC)C(C(=O)N1CCN(c3ccccn3)CC1)C(c1cccs1)N(C)C2=O (configuration not stated) | -57 | 7 | -4 | 0.7 | .
N/C(Cc1ccc([N+](=O)[O-])cc1)=N\OC(=O)c1ccccc1Br | -20 | -1 | 3 | 0.8 | 8%
O=C(CCC1CCCCC1)NCc1cccnc1 | . | . | 0 | -0.1 | .
COc1ccc(CCN=C(N)NS(=O)(=O)c2ccc(C)cc2)cc1OC | . | -4 | 3 | 0.8 | -4%
CCC(C)[C@H](NC(=O)[C@@H]1CSC2c3ccccc3C(=O)N21)C(=O)NC1CCCC1 (some centres not stated) | . | . | -5 | -1.8 | .
Cn1cnnc1SCC(=O)Nc1ccc(F)cc1 | . | . | 5 | -2.4 | .
CCN(CC(=O)NCc1ccc(Cl)cc1)C(=O)c1ccc(C#N)cc1 | . | . | -6 | -2.7 | .
O=C(Nc1ccccc1Cl)c1ccn[nH]1 | 14 | -1 | -9 | 2.9 | -6%
CC1CCN(Cc2nnc(-c3cccc(Br)c3)o2)CC1 | . | . | 3 | -8.2 | .
CCCn1c(CN2CCCCC2C)nc2c1c(=O)n(C)c(=O)n2C (configuration not stated) | -22 | -4 | -4 | 2.9 | 3% | Arbovirus anti repeat=-1
CN(C)Cc1c(O)ccc2c3c(c(=O)oc12)CCCCC3 | -30 | 9 | -11 | -219 | -65%
Cc1ccccc1NC(=O)C1C2CCCCC21 (configuration not stated) | . | . | 3 | 2.4 | .
CC(C)c1nc2ccc(NC(=O)C34CC5CC(CC(C5)C3)C4)cc2[nH]1 | -9 | -24 | 5 | 1.2 | -5%
CC(=O)Nc1ccc(C(=O)NNC(=O)c2cccs2)cc1 | -23 | 5 | 5 | 0.4 | -6%
O=C(CS(=O)(=O)c1c[nH]c2ccccc12)Nc1ccc(F)cc1 | . | . | -15 | -0.2 | .

The closing 3 records of the part above are carried over, then new ones follow:
SMILES | YopH PTP inh | Arbovirus anti | Mtb bLac sens | RecA splice inh | Mtb H37Rv | others
CC(C)c1nc2ccc(NC(=O)C34CC5CC(CC(C5)C3)C4)cc2[nH]1 | -9 | -24 | 5 | 1.2 | -5%
CC(=O)Nc1ccc(C(=O)NNC(=O)c2cccs2)cc1 | -23 | 5 | 5 | 0.4 | -6%
O=C(CS(=O)(=O)c1c[nH]c2ccccc12)Nc1ccc(F)cc1 | . | . | -15 | -0.2 | .
Cc1nn(Cc2ccccc2)c(C)c1N | -27 | -4 | 3 | -0.2 | 5%
Cc1ccc(SCC(=O)NC(C)(C)C)cc1 | -10 | -1 | -7 | -0.7 | -4%
COc1ccc(/C=C/C(=O)N(Cc2ccccc2)c2ccccn2)cc1OC | . | -1 | 8 | 0.0 | 0%
C(=N\N1CCN(C2c3ccccc3-c3ccccc32)CC1)/c1cccs1 | -45 | 5 | -13 | -0.8 | -4%
O=C(N/N=C/c1cccc([N+](=O)[O-])c1)C1CC(=O)N(c2ccc(Br)cc2)C1 (configuration not stated) | -27 | 6 | 9 | -1.9 | -5%
COCCOC(=O)C1=C(C)NC(=O)NC1c1c(Cl)nc2c(C)cccn2c1=O (configuration not stated) | -25 | -6 | -2 | -2.3 | -8%
COc1cc2c(cc1OC)CN(C(=O)c1sccc1C)CC2 | . | . | -4 | . | -8%
CCOc1ccc(C(=O)NC(=S)Nc2ccc(N3CCC(C)CC3)cc2)cc1[N+](=O)[O-] | -34 | 9 | . | -1.8 | 25%
O=S(=O)(NCc1csc(-c2cccs2)n1)c1ccc(Cl)cc1 | . | . | -5 | 4.7 | 12%
CC(NC(=O)c1cccs1)C(S)c1ccccc1 (configuration not stated) | . | . | -9 | 2.9 | .
COc1ccccc1NC(=O)COC(=O)c1ccccn1 | . | . | -1 | -1.5 | .
O=C(COc1cccc(F)c1)N[C@@H](Cc1ccccc1)c1nc2ccccc2[nH]1 | -1 | 13 | 6 | -3.6 | 3%
CCC(CC)C(=O)N1CCN(Cc2ccc3c(c2)OCO3)CC1 | -29 | 4 | -6 | -2.6 | -5%
Nc1nnc(N2CCCCC2)s1 | -29 | 14 | -4 | -0.9 | -4%
CCOc1ccccc1NC(=O)NC1(C(=O)N2CCOCC2)CCCCC1 | -23 | -3 | -2 | 0.2 | -11%

Reprinted from above (five entries):
SMILES | YopH PTP inh | Arbovirus anti | Mtb bLac sens | RecA splice inh | Mtb H37Rv | others
COc1ccccc1NC(=O)COC(=O)c1ccccn1 | . | . | -1 | -1.5 | .
O=C(COc1cccc(F)c1)N[C@@H](Cc1ccccc1)c1nc2ccccc2[nH]1 | -1 | 13 | 6 | -3.6 | 3%
CCC(CC)C(=O)N1CCN(Cc2ccc3c(c2)OCO3)CC1 | -29 | 4 | -6 | -2.6 | -5%
Nc1nnc(N2CCCCC2)s1 | -29 | 14 | -4 | -0.9 | -4%
CCOc1ccccc1NC(=O)NC1(C(=O)N2CCOCC2)CCCCC1 | -23 | -3 | -2 | 0.2 | -11%

(further entries)
SMILES | YopH PTP inh | Arbovirus anti | Mtb bLac sens | RecA splice inh | Mtb H37Rv | others
COc1ccccc1Cn1[nH]nnc1=S | . | . | 2 | . | -13%
CCCCc1nc(NCCNC(=O)c2ccccc2)c(C#N)c2c1CSC(C)(C)C2 | -10 | 2 | 3 | 3.6 | 1%
O=C(C1=C[C@@H](c2coc3ccccc3c2=O)C[C@@H](OCCCCO)O1)N1CCOCC1 | . | -1 | -1 | -2.3 | -5%
CCOC(=O)c1ccc(S(=O)(=O)Nc2ccc(N3CCOCC3)cc2)cc1 | . | . | 6 | -2.8 | .
COc1ccc(Cc2nc3ccc(C(=O)N4C[C@@H](C)O[C@@H](C)C4)cc3o2)cc1OC | . | . | 3 | -1.9 | .
Cc1cc2ncn(C(=O)c3ccc(F)cc3)c2cc1C | . | . | 5 | 29 | .
COc1ccc(CN(C(=O)c2cccs2)c2ccccc2)cc1 | . | -8 | 1 | 4.9 | -8%
CCN1CCN(c2ccc(S(=O)(=O)N3CCCCC3)cc2NC(=O)Cc2ccccc2F)CC1 | . | . | -1 | -1.0 | .
COc1cc(NC(=O)Cn2cnc3sc(C)c(S(=O)(=O)N4CCN(C)CC4)c3c2=O)cc(OC)c1OC | . | 0 | -13 | -0.9 | 1%
CC(C)(C)OC(=O)N1CCN(C(=O)c2[nH]cnc2C(=O)N[C@@H](Cc2ccccc2)C(=O)OCc2ccccc2)CC1 | . | . | 58 | 2.5 | .
CN(C)/C=C1\N=C(c2cccs2)OC1=O | -1 | -11 | 5 | 1.4 | 4%
COc1ccc2c(c1)[nH]c1c(=O)n(N)cnc12 | 11 | -3 | -1 | 4.7 | 6%
Cc1occc1C(=O)N/N=C/c1ccc(Br)s1 | . | -1 | -8 | -0.3 | 7%
CC1(C)CC(=O)c2cc3c(N)c(C(=O)NCc4ccccc4)sc3nc2C1 | -26 | -5 | 19 | -0.2 | 2%
COc1ccc(NC(=O)CSc2nnc(-c3cccs3)n2-c2ccccc2)cc1 | -33 | -3 | -1 | -0.7 | -7%
Cc1ccc2sc(NNC(=O)C3COc4ccccc4O3)nc2c1C (configuration not stated) | -39 | -12 | 60 | . | .
COc1ccc(-n2c(=O)/c(=C\c3cccs3)s/c2=C(/C#N)C(=O)NCCN2CCOCC2)cc1 | . | -1 | -1 | -1.1 | 2%
Cc1c(CCC(=O)NCCCC(=O)O)c(=O)oc2cc3oc4c(c3cc12)CCCC4 | . | . | 4 | -4.0 | .
COC(=O)c1cccc(NC(=O)Cc2ccccc2[N+](=O)[O-])c1C | -24 | 1 | 0 | -0.4 | -10%
O=C(CSc1nc(-c2ccco2)cc(C(F)(F)F)n1)NN1CCOCC1 | . | 4 | -1 | 1.5 | -1%
COc1ccc(-c2cccc(C3CC=CC4C3C(=O)N(Cc3ccccc3)C4c3cc(C)ccc3F)c2)cc1 (configuration not stated) | . | . | . | 0.9 | 8%
COc1ccc(Cn2c(O)c(/C=N/NC(=O)c3ccccc3)c(=O)[nH]c2=O)cc1 | -35 | 6 | 65 | 8.5 | -3%
COC(=O)NCc1cccc(CNC(=O)OC)c1 | -62 | 7 | 3 | -0.1 | -3%
COc1cccc(NC(=O)C2CCCN2C(=O)NC2CCCCC2)c1 (configuration not stated) | . | . | 6 | 0.2 | .
COCCCNC(=O)C(C#N)c1nc2ccccc2nc1N1CCCC1 (configuration not stated) | -35 | -7 | 9 | -20 | 1%
Cc1ccc(CN(C(=O)COc2ccc(C)c(C)c2)C2CCS(=O)(=O)C2)o1 (configuration not stated) | . | . | 1 | 0.5 | .
O=C(Nc1cnn(Cc2ccc(Cl)cc2)c1)c1cnccn1 | -9 | -13 | -8 | 3.2 | 24%
CC1CCCCN1CCNC(=O)CC1Oc2ccccc2NC1=O (configuration not stated) | -47 | 3 | -1 | -2.1 | 0%
CCOC(=O)c1c(C)oc2cc(Br)c(OCC(N)=O)cc12 | -65 | -14 | -4 | -1.1 | 5%
COc1ccccc1/C=C/C(=O)NCC(=O)N/N=C/c1ccccc1 | . | 7 | -6 | 1.9 | 5%
Cn1c(NC(=O)Cc2cccs2)cc(=O)n(C)c1=O | -25 | -2 | -2 | -3.4 | 4% | Arbovirus anti repeat=0
COc1ccc(S(=O)(=O)Nc2cc(C)c(O)c(S(=O)(=O)c3ccccc3)c2)cc1 | -43 | 6 | 6 | -4.4 | -3%
Cc1ccc2nc(NC(=O)CSCC(=O)OCC(=O)c3ccc(Br)cc3)sc2c1 | -38 | 6 | 3 | 1.2 | .
CC(=O)c1cnc2cc(-c3ccccc3)nn2c1C | -8 | 7 | 3 | 0.2 | -7%
CCOc1ccc(/C=C/c2nc(C#N)c(NCCCOC)o2)cc1 | . | . | 74 | 0.2 | .
CC(=O)Nc1ccc(S(=O)(=O)NNC(=O)CCC(=O)Nc2cc(C)ccc2C)cc1 | -39 | 0 | -4 | 3.5 | 5%
O=C(OCCOCCN=C1NS(=O)(=O)c2ccccc21)C1CC(=O)N(c2ccccc2)C1 (configuration not stated) | -37 | -6 | -3 | 0.3 | -6% | Arbovirus anti repeat=4
CN1C(=O)C(Cc2cccc3ccccc23)C(=O)N(C)C1=O | 55* | 0 | 3 | 18 | -10% | Arbovirus anti repeat=1
O=C(c1ccncc1)N1CCN(c2cccc(C(F)(F)F)c2)CC1 | -24 | 2 | 9 | -1.6 | -3%
CCc1ccc2[nH]c3nc(N/N=C/c4cccc(O)c4)nnc3c2c1 | . | . | 10 | -6.6 | .
CCOC(=O)c1ccc(NC(=O)c2cc(OC)c(OC)c(OC)c2Br)cc1 | -16 | 0 | 94 | 4.9 | 31%
COc1cc(-c2nc3ccccn3c2NCc2ccccc2)ccc1SC1CCCCC1 | . | . | 67 | -1.3 | .
O=C1N=C2N(CCN3CCCCC3)c3ccccc3N2/C1=C\c1ccc([N+](=O)[O-])o1 | . | -34 | . | . | 1.6µM*
COC(=O)Cn1ccc2cc(S(=O)(=O)N3CCCCC3)ccc21 | . | . | -5 | 6.1 | .
O=C(Cc1ccccc1)Nc1cccc(N2C(=O)C=CC2=O)c1 | -19 | 4 | -3 | -1.0 | 6%

Molecules listed so far that contain an aryl thioether with sulfur outside any ring, in the order listed:
SMILES | YopH PTP inh | Arbovirus anti | Mtb bLac sens | RecA splice inh | Mtb H37Rv | others
Cn1cnnc1SCC(=O)Nc1ccc(F)cc1 | . | . | 5 | -2.4 | .
Cc1ccc(SCC(=O)NC(C)(C)C)cc1 | -10 | -1 | -7 | -0.7 | -4%
COc1ccc(NC(=O)CSc2nnc(-c3cccs3)n2-c2ccccc2)cc1 | -33 | -3 | -1 | -0.7 | -7%
O=C(CSc1nc(-c2ccco2)cc(C(F)(F)F)n1)NN1CCOCC1 | . | 4 | -1 | 1.5 | -1%
COc1cc(-c2nc3ccccn3c2NCc2ccccc2)ccc1SC1CCCCC1 | . | . | 67 | -1.3 | .

New compounds follow.
SMILES | YopH PTP inh | Arbovirus anti | Mtb bLac sens | RecA splice inh | Mtb H37Rv | others
Cc1cc(=O)oc2cc(Oc3ccc([N+](=O)[O-])cc3[N+](=O)[O-])ccc12 | -12 | -36 | 1 | 10 | 51%
CC(C)C1Cc2c(C#N)c(N)sc(=S)c2CO1 (configuration not stated) | 1 | 8 | -6 | 12 | -7%
O=C(CSc1nc2ccc([N+](=O)[O-])cc2s1)NCC1CCCO1 (configuration not stated) | . | . | 2 | -0.7 | .
Cn1ncc(C#N)c1NC(=O)c1nn2cccnc2c1Cl | -32 | 14 | 7 | -0.5 | 7%
Cc1cc(C)c(S(=O)(=O)N2CCN(C(=O)N3CCCCC3)CC2)c(C)c1 | . | . | -8 | 1.7 | .
CS(=O)(=O)Nc1ccc(-c2cn3cccnc3n2)cc1 | . | . | -4 | 0.1 | .
CCC(C)(C(=O)NC1CCCCC1)N(C)C(=O)c1ccccn1 (configuration not stated) | 4 | 11 | 1 | -5.3 | -6%
CC(C)CNS(=O)(=O)c1ccc(CCC(=O)N2CCOCC2)cc1 | -26 | 11 | -4 | . | 0%

Some of the compounds tested; the hit share may differ from the screen's.
